NPYLR7 agonist – mosquito NPYLR7 agonism; HEK293T NPYLR7/Galpha15, GCaMP6s calcium fluorescence; activation, % at 10 µM; hit rate 0.15% among 270,000; AID 1259423; in the data active = activation above about 40%;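 also: 0% = vehicle and 100% = reference agonist at the receptor; some compounds past the cut are filed as inactive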
NPYLR7 agonist max-min – further read-out of NPYLR7 agonist, marked with its call; activation, %; measured here: Max-Min RFU normalised activation; some inactives read as strong as hits;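 span of the calcium signal over five minutes; 0% = vehicle and 100% = native peptide agonist; compound fluorescence can raise it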
* marks the source's active call; other numbers are inactive results.

| structure | NPYLR7 agonist | NPYLR7 agonist max-min |
| --- | --- | --- |
| O=C(NCc1ccccn1)C1CCN(C2CCN(C(=O)C3=CCCC3)CC2)CC1 | 4 | 2 |
| CC(=O)N[C@@H]1C[C@H](CC(C)C)O[C@H](c2cn[nH]c2-c2ccc(F)cc2)C1 | 3 | -2 |
| CCOC(=O)c1cc2c(=O)n3cccc(C)c3nc2n(CC(C)C)c1=N | 1 | 8 |
| COCCn1c(C)cc(C2=NNC(=NC3CC3)SC2)c1C | 0 | -1 |
| COCCN(Cc1cccs1)C(=O)C1CCCN1C(=O)C1CCCCC1 (stereo not drawn) | -7 | -15 |
| CSc1ccc2cc(CN3CCN(C)C(C(=O)O)C3)c(=O)[nH]c2c1 (stereo not drawn) | 3 | 2 |
| CCc1ccccc1OCCN(C)C(=O)c1c(O)cccc1F | 12 | 7 |
| O=C(CC1CSc2nccc(=O)n21)NCc1cccnc1 (stereo not drawn) | 1 | -2 |
| COc1cccc2c1OCCCN(C(=O)c1cccc(Cn3cccn3)c1)C2 | 3 | -3 |
| Cc1cccc(C(=O)NC2CCN(c3ccccc3C(=O)N3CCc4ccccc4C3)CC2)c1 | 20 | 14 |
| CCCCSc1nnc2c(n1)OC(C1CC=C(C)CC1)Nc1ccccc1-2 (stereo not drawn) | -9 | -15 |
| CNC(=O)c1ccccc1NCc1ncnn1C | 4 | 3 |
| O=C(COc1ccccc1)NCCN1CCn2cc(OCc3ccccc3)c(=O)cc2C1=O | 8 | 4 |
| O=C(c1ccccc1C1CCNC1)N1CC=C(c2ccc(F)cc2)CC1 (stereo not drawn) | 2 | -6 |
| CCn1cc(Cl)c(C(=O)N2CCC(Cc3nnc(SC)n3C)CC2)n1 | 5 | -5 |
| COc1cccc(CN(Cc2cccc(C(F)(F)F)c2)Cc2nc(C(=O)NCc3ccccc3)co2)c1 | 8 | 0 |
| Cc1ccc(C(=O)NCC(C)Oc2cccnc2)cc1NC(=O)C1CCCC1 (stereo not drawn) | 21 | 14 |
| CCN1CCCC1CNC(=O)C1CCCCN1S(C)(=O)=O (stereo not drawn) | 2 | 0 |
| Cc1cccc(-c2cc(N)n(-c3ccc(C(=O)NCCOc4ccccc4)cc3)n2)c1 | -7 | -11 |
| c1nc(N2CCc3nc[nH]c3C2)c2cc[nH]c2n1 | 1 | -1 |
| CCn1nnc2c(NCc3ccc(Cl)cc3)ncnc21 | 5 | 5 |
| COc1ccc(CN2C(=O)N(C)C3(CCN(Cc4cccc(Oc5ccccc5)c4)CC3)C2=O)cc1 | -6 | -16 |
| CCOC(=O)C1CCCN(C(=O)c2cccc(CSc3nc(C)c(C)c(N4CCOCC4)n3)c2)C1 (stereo not drawn) | 4 | 18 |
| COc1ccc(-c2cc3c(SCc4cccc(F)c4)nccn3n2)cc1 | 1 | -3 |
| Cc1cccc(NC(=O)N2CCCC(c3nnc4n3CCCCC4)C2)c1 (stereo not drawn) | -3 | -3 |
| O=c1c2ccccc2nc(-c2cccc(F)c2)n1Cc1ccc(Cl)cc1 | 7 | 2 |
| COc1ccc2nc(CCNc3ncc(C)c(-c4cnn(C)c4)n3)[nH]c2c1 | 6 | 3 |
| CCOCCN1CCN(C(=O)Nc2ccc(Oc3ccc(C)cc3)nc2)CC1 | -10 | -11 |
| CC(C)(C)P(=Nc1cccc(C(F)(F)F)c1)(N1CCOCC1)C(C)(C)C | -10 | -16 |
| CCCCN1CCN(Cc2ncccc2C(=O)O)CC1 | 3 | -2 |
| CCN(CC(=O)Nc1c(C#N)c(C)c(C)n1C1CCCC1)CC1COc2ccccc2O1 (stereo not drawn) | -2 | 0 |
| O=C(c1ccco1)N1CCC(n2c(Cc3ccccc3)nc3ccccc32)CC1 | 2 | 1 |
| CC(c1ccccn1)N(C)Cc1ccc(C#CC(C)(C)O)s1 (stereo not drawn) | -1 | -1 |
| COCCN1CCC(Cn2cnc(-c3ccccc3)c2-c2nccn2C)C1 (stereo not drawn) | -3 | -5 |
| Cc1ccc(N2CCC(C(=O)N3CCC(n4c(C)ccc4C)CC3)C2=O)cc1C (stereo not drawn) | -2 | -3 |
| CC(C)CCCC1CN(C(=O)CCN2CCCCO2)CCO1 (stereo not drawn) | 8 | 3 |
| Cc1[nH]c2nc3c(c(=O)n(Cc4ccccc4)c(=O)n3C)n2c1C | -1 | 1 |
| Cc1nc(N(C)C)nc(NCc2nc3ccccc3c(=O)[nH]2)c1C | 1 | -8 |
| COc1ccccc1C(C)NC(=O)c1cc(-c2csc(C)n2)c[nH]1 (stereo not drawn) | 2 | 2 |
| COCCCN(Cc1ccsc1)Cc1ccc(C(O)(c2ccc(OC)cc2)c2ccc(OC)cc2)o1 | 4 | 1 |
| CCOC(=O)c1sc(N(Cc2ccccc2)C(=O)COC(=O)c2cc(C)oc2C)nc1C | -2 | -7 |
| CCOCCN1CCN(C(=O)c2cn(CC3CCCO3)cc3c(=O)n(-c4ccccc4)nc2-3)CC1 (stereo not drawn) | -3 | -5 |
| CC(=O)c1ccc(OCc2nnc(C(C)C)o2)cc1F | 8 | 6 |
| CCOc1ccccc1-c1nc(CN2CCNC(=O)C2c2cccc(F)c2)c(C)o1 (stereo not drawn) | -3 | -14 |
| CCn1c2ccccc2c2cc(Nc3cc(-c4cc(OC)c(OC)c(OC)c4)ncn3)ccc21 | 1 | 0 |
| CN1CC=C2C(C#N)C(=N)C(C#N)(C#N)C(c3cccc(I)c3)C2C1 (stereo not drawn) | 2 | -3 |
| N#Cc1c(F)cccc1NC1CCN(Cc2ccccc2)CC1CO (stereo not drawn) | -2 | 36 |
| CCCCCNC(=O)COc1ccccc1O | 1 | -1 |
| O=C(Cn1nc(-c2ccccc2)c2ccccc2c1=O)NCCO | 7 | 8 |
| COc1ccc2[nH]c3c(c2c1)CN(Cc1cn[nH]c1C(=O)O)CC3 | 17 | 11 |
| CCOC(=O)C1CCN(C(=O)c2cn(C)c3c(=O)n(-c4ccccc4)c(=O)[nH]c23)CC1 | 3 | 0 |
| CCOC(=O)CSc1nc2sc(C)c(C)c2c(=O)[nH]1 | -2 | -4 |
| COc1ccc(C(=O)c2c[nH]cc2-c2ccccc2)cc1 | 9 | 9 |
| CN(C(=O)C1=NCC(=O)N(c2ccccc2)N1)C1CCCCC1 | -2 | -2 |
| CCNCC1COc2ccccc2O1 (stereo not drawn) | 3 | 12 |
| CCOC(=O)N1CCN(C(=O)c2cnn3c2NC(c2ccc(C)cc2)CC3C(F)(F)F)CC1 (stereo not drawn) | 1 | -2 |

Following part
| structure | NPYLR7 agonist | NPYLR7 agonist max-min |
| --- | --- | --- |
| O=C(c1[nH]nc(-c2ccccc2)c1Br)N1CCC2(CC1)OCCO2 | 2 | 0 |
| CN(C)c1nc(Oc2ccc(/C=N\O)cc2)nc(N(C)C)n1 | -14 | -18 |
| Cc1ccc(C(C)(C)C)cc1S(N)(=O)=O | -3 | -4 |
| Cc1nn(C)c(C)c1CC(=O)Nc1nc(-c2cc(F)ccc2F)cs1 | 3 | 8 |
| CC1(C(=O)Nc2ccccc2F)CCN1C(=O)CCc1cccs1 (stereo not drawn) | 4 | 2 |
| CC(=O)Oc1c(-c2ccc(NC(=O)c3ccc4c(c3)OCO4)cc2)c(C(C)C)nn1-c1cccc(C)c1 | 3 | 6 |
| O=C(c1ccccc1OC(F)(F)F)N1CCN(c2nccc(-c3ccc(Oc4ccccc4)cc3)n2)CC1 | 1 | 3 |
| CCOC(=O)Cn1ncc2c1CCN(C(=O)c1ccc(C(F)(F)F)cc1)C2 | 0 | 10 |

(further entries)
Compound	NPYLR7 agonist	NPYLR7 agonist max-min
CCOCCCn1c(SCc2ccccc2C#N)nc2cc(C(=O)OCC)ccc21	11	19
COc1cc(/C=C/c2[nH]c(=O)[nH]c(=O)c2[N+](=O)[O-])cc(Cl)c1O	-8	-12
Cc1cccc(-n2c(-c3ccccc3F)n[nH]c2=S)c1	-5	3
O=C(c1ccc(F)cc1)N1CCCC(OCc2cccc([N+](=O)[O-])c2)C1 (stereo not drawn)	-4	-3
COc1ccc(S(=O)(=O)N2CCC(Cc3ccccc3)CC2)cc1N1CCN(C(=O)c2cc(F)ccc2F)CC1	28	15
C=C(C)CN(CC)C(=O)c1cc(-c2cccs2)nn1C	6	5
O=C(NC1CCCCC1)O[C@@H]1CO[C@H]2[C@@H]1OC[C@@H]2n1cc(-c2ccccn2)nn1	-10	-17
CCOC(=O)c1cc(=O)n2nc(-c3ccccc3F)nc2s1	0	-1
CCC(=C(c1ccccc1)c1ccc(OCCN(C)C)cc1)c1ccccc1	-4	-8
Cc1ccc(CNC(=O)C2CCN(c3ccc(Cl)nn3)CC2)n1C	4	1
Cc1nn(C)c(Cl)c1CN(C)C1CCCN(Cc2ccccc2F)C1 (stereo not drawn)	1	0
CCC(C)Sc1nnc2n1CCN2c1ccc(F)cc1 (stereo not drawn)	3	6
O=C(NCCNc1nccc(C2CCCC2)n1)c1ccncc1	2	1
O=C1C2C3CC(C(Br)C3Br)C2C(=O)N1c1cccnc1 (stereo not drawn)	-1	-7
O=C(C(Cc1ccccc1)c1ccccc1)N1CCC(c2ccccc2)CC1 (stereo not drawn)	-7	-14
N#Cc1c(N)nc(SCC(N)=O)c(C#N)c1C1CCCCC1	3	2
CCN(CCN1CCCC1)C1CCCNC1 (stereo not drawn)	12	10
Cc1cccc(C2c3cccn3CCCN2Cc2ccccc2C(F)(F)F)c1 (stereo not drawn)	4	4
CC(C)C1Oc2ccccc2C2CC(c3ccccc3)=NN21 (stereo not drawn)	6	49
O=C(C1CC2(CCNCC2)CN1)N(CCc1ccccc1)Cc1ccccc1 (stereo not drawn)	19	4
O=C1OCCC1Sc1ncc(C(F)(F)F)cc1Cl (stereo not drawn)	10	16
O=C(Nc1ccc(-c2ccn[nH]2)cc1)C1CCCN(Cc2cccc3cccnc23)C1 (stereo not drawn)	5	4
COC(=O)CNC(=O)c1cccnc1Sc1ccccc1Cl	1	-1
CCc1nn(C)c(Cl)c1CN1CCCn2nc(C(=O)OC)cc2C1	-4	1
Cc1cc(C)nc(SCc2c(C(=O)NCc3ccco3)nnn2-c2ccccc2)n1	-4	-5
CCCOc1cccc(C(=O)Nc2cccc(-c3nc4cc(C)c(C)cc4o3)c2)c1	9	8
CCN1CCCC1CNc1c2c(nc3ncnn13)CCCC2 (stereo not drawn)	0	-2
CCN(CC)C(=O)C1CCCN(C2CCN(c3ccc(NC(=O)Cc4cccc(F)c4)cc3)CC2)C1 (stereo not drawn)	17	10
CS(=O)(=O)c1ccccc1C(=O)N(CCCN1CCOCC1)c1nc2ccc(Cl)cc2s1	-1	-3
CCC1CCCN(C(C)c2c(F)cccc2F)C1 (stereo not drawn)	11	8
Cc1ccccc1OS(=O)(=O)c1cc(Cl)ccc1Cl	0	-1
CC(C(=O)O)N1C(=O)C2C3C=CC(C3)C2C1=O (stereo not drawn)	3	2
CCCc1cn(C2CCN(C(=O)c3cc4c(nc3OC)CCC4)CC2)nn1	1	0
C/C=C(\C)C(=O)N1CCc2ccccc2C1c1ccc(Cl)cc1 (stereo not drawn)	-6	-3
O=C(N[C@@H]1CCCCC1NC(=O)C1CCN(C(=O)COc2ccccc2)CC1)c1ccc(F)cc1 (stereo partly drawn)	0	4
C#CCN(CC=C)Cc1cn[nH]c1-c1cc(OC)c(OC)c(OC)c1	9	2
CCOC(=O)C1CCCN(C(=O)c2cc(C(C)C)nc3c2c(=O)[nH]c(=O)n3CC)C1 (stereo not drawn)	-2	-3
CN(C(=O)CCNC(=O)C1CCCN(C(=O)Cc2ccc(F)cc2)C1)c1ccccc1 (stereo not drawn)	9	7
CN1CCC(C(=O)N2CC(C)(C)C2c2ccccc2)CC1=O (stereo not drawn)	3	2
COc1cccc(OCc2cc(C(=O)N3C[C@H]4CC[C@H]3C4)n[nH]2)c1	1	-3
CN1N=C(C(=O)N2CCC3CCCCC3C2)CCC1=O (stereo not drawn)	2	-1
CCOC(=O)C1(Cc2ccccc2F)CCCN(C(=O)c2ccoc2)C1 (stereo not drawn)	-5	-11
Cc1ccc(-n2ncc3c(C)nn(Cc4ccccn4)c(=O)c32)cc1C	6	2
CCCCN(C)C(=O)c1sc(=O)n(Cc2cccc(F)c2)c1C	5	1
COc1cccc(Cn2c(C(=O)N3CCN(C(=O)Nc4ccccc4OC)C(C)C3)cc3ccoc32)c1 (stereo not drawn)	-1	2
COc1cc(C(=O)N(CCN(C)C)CC2CCCN(Cc3ccccc3F)C2)ccc1C (stereo not drawn)	4	2
C=Cc1ccc(Cn2c(C)c(C(=O)NCc3cccc(C)c3)sc2=O)cc1	10	5
NC(=O)c1ccc(NCCOc2ccc(Cl)cc2Br)cc1Cl	0	-4
CCCCOc1ccc(C(=O)NCc2nnc(SCC(=O)Nc3nnc(C)s3)n2-c2ccc(F)cc2)cc1	-6	4
COCC(=O)Nc1nnc(SCC(=O)c2cccc(OC)c2)s1	-1	9
COCCN1C(=O)CC(CC(=O)NCc2ncccc2C)(c2ccccc2OC)C1=O (stereo not drawn)	8	8

Entries from the list above with an aryl thioether with sulfur outside any ring, in the order listed:
Compound	NPYLR7 agonist	NPYLR7 agonist max-min
CSc1ccc2cc(CN3CCN(C)C(C(=O)O)C3)c(=O)[nH]c2c1 (stereo not drawn)	3	2
CCCCSc1nnc2c(n1)OC(C1CC=C(C)CC1)Nc1ccccc1-2 (stereo not drawn)	-9	-15
CCn1cc(Cl)c(C(=O)N2CCC(Cc3nnc(SC)n3C)CC2)n1	5	-5
CCOC(=O)C1CCCN(C(=O)c2cccc(CSc3nc(C)c(C)c(N4CCOCC4)n3)c2)C1 (stereo not drawn)	4	18
COc1ccc(-c2cc3c(SCc4cccc(F)c4)nccn3n2)cc1	1	-3
CCOC(=O)CSc1nc2sc(C)c(C)c2c(=O)[nH]1	-2	-4
CCOCCCn1c(SCc2ccccc2C#N)nc2cc(C(=O)OCC)ccc21	11	19
CCC(C)Sc1nnc2n1CCN2c1ccc(F)cc1 (stereo not drawn)	3	6
N#Cc1c(N)nc(SCC(N)=O)c(C#N)c1C1CCCCC1	3	2
O=C1OCCC1Sc1ncc(C(F)(F)F)cc1Cl (stereo not drawn)	10	16
COC(=O)CNC(=O)c1cccnc1Sc1ccccc1Cl	1	-1
Cc1cc(C)nc(SCc2c(C(=O)NCc3ccco3)nnn2-c2ccccc2)n1	-4	-5
CCCCOc1ccc(C(=O)NCc2nnc(SCC(=O)Nc3nnc(C)s3)n2-c2ccc(F)cc2)cc1	-6	4
COCC(=O)Nc1nnc(SCC(=O)c2cccc(OC)c2)s1	-1	9

Screens as filed in PubChem.

A portion of the library, so the mix of outcomes need not match the whole.
